Menin MLL FP FL – qHTS Assay for Inhibitors Targeting the Menin-MLL Interaction in MLL Related Leukemias: Competition With Fluorescein Labeled MLL-derived Peptide; FP activity change, % at 61.4 µM; 290,000 tested, under 10 active; AID 1766, 2009; Fluorescence polarization, fluorescein-MLL peptide displacement from menin; inconclusive = falling polarisation curve, or a change in total fluorescence; inactive = total fluorescence flat and polarisation flat or rising; no compound was filed as active; the % refers to the polarisation; negative = inhibition;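 further: % of control where 0% means no effect; inhibitors lower the polarisation; unlabelled MLL peptide was the positive control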
PINK1 expr mod – A Quantitative High throughput Screen to Identify Chemical Modulators of PINK1 Expression; hit rate 0.2% among 410,000; AID 624263, 2012; PINK1 immunofluorescence, high-content cytometry, 24 h; Potency, µM (highest dose often 76.6 µM), for the others: at the highest dose activation (PINK1 increase), usual class: activators; active = well fitted activation curve with a large enough effect; inconclusive = small, poorly fitted or top-dose-only effect; inactive = flat fitted curve, though single readings scatter; cell line not stated here;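 further: potency means the concentration at half of the fitted maximal effect; % of control where 0% means no effect; nearly all actives have a fitted effect of over 65% in size; a mitochondrial uncoupler was the plate control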
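Compound titrations (5 concentrations, 24 h) on a stable cell line; DMSO and CCCP controls. Endpoint: fixed-cell PINK1 immunofluorescence with mitochondrial, cell and nuclear markers, scanned by microplate cytometer.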
gsp ag – qHTS for Agonist of gsp, the Etiologic Mutation Responsible for Fibrous Dysplasia/McCune-Albright Syndrome: qHTS | gsp mutant cells, cAMP HTRF, 30 min; control for the full effect not named in the record | Potency, µM (titrated, usually from 76.9 µM), without a hit: at the top dose activation (cAMP increase), usual class: activators | hit rate 0.13% among 340,000 | AID 624287, 2012; active = well fitted activation curve with a large enough effect; inconclusive = small, poorly fitted or top-dose-only effect, or another doubt; inactive = no such curve, though single readings can be large or run the other way; cell line not stated here;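 further: phosphodiesterase inhibitor Ro 20-1724 added with compounds to block cAMP breakdown; potency means the concentration at half of the fitted maximal effect; nearly all actives have a fitted effect of over 60% in size; about a fifth of the inactives were tested at one dose only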
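Cells stably selected in G418 were plated at 2000/well, grown 16-24 hr, then given compounds in DMSO with the PDE inhibitor […] (300 uM solution added) for 30 min at 37C; cAMP was read by HTRF.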
ClpP mod – qHTS Assay for Activators of ClpP. purified B. subtilis ClpP, FRET peptide cleavage, 20 min. ATP-dependent Clp protease proteolytic subunit (Bacillus subtilis (strain 168)), P80244. Potency, µM (titrated, usually from 57.5 µM), without a hit: at the top dose activity change, negative = active. hit rate 1.9% among 340,000; active = well fitted falling curve with a large enough effect; inconclusive = small, poorly fitted or top-dose-only effect; inactive = no such curve, though single readings can be large or run the other way; further: potency means the concentration at half of the fitted maximal effect; the source files actives as falling curves though it sought activators and does not explain the sign; nearly all actives have a fitted effect of over 65% in size; many hits overshoot -100%
Target sequence (P80244 whole entry, looked up): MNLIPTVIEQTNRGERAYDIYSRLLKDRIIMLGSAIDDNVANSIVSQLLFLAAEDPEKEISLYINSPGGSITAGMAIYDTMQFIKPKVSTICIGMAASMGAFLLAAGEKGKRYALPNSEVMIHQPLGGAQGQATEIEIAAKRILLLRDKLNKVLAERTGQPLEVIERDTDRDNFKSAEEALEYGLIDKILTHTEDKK
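Buffer: 100 mM Tris/HCl pH8, 100 mM KCl, 0.05% low protease BSA, 2.5% glycerol, 0.01% Tween-20. ClpP 10 microg/mL final; 20 min RT; delta FRET normalized to ADEP and DMSO controls.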
gsp antagonist – qHTS for Antagonists of gsp, the Etiologic Mutation Responsible for Fibrous Dysplasia/McCune-Albright Syndrome: qHTS; gsp-mutant cells, cAMP HTRF, 30 min; control for the full effect not named in the record; Potency, µM (doses to about 76.9 µM), for the others: at the top dose activity change, negative = inhibition, hits mostly inhibitors; hit rate 0.4% among 340,000; active = falling curve of any shape with a large fitted effect; inconclusive = falling curve, mostly with a smaller effect; inactive = flat or rising curve; cell line not stated here;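 further: intracellular cAMP measured with PDE inhibitor Ro 20-1724 present during compound exposure; potency means the concentration at half of the fitted maximal effect; on the % scale 0 is the no-effect control and ±100 the full control effect; nearly all actives have a fitted effect of over 65% in size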
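Cells, 2000/well, grown 16–24 h in DMEM 10% FBS with 0.5 mg/ml G418, then compounds plus […] (300 uM addition stock), 30 min at 37C. cAMP read by HTRF (cAMP-d2 and anti-cAMP antibody-K in lysis buffer) after 30 min RT.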
D2 agonist – Beta-Arrestin HTS for Positive Allosteric Modulators of the Human D2 Dopamine Receptor: Agonists; D(2) dopamine receptor (Homo sapiens), P14416; DiscoveRx PathHunter D2 beta-arrestin, luminescence, 90 min; 100% = 57 uM dopamine signal; activation, % (no concentration beside the values); hit rate 0.084% among 360,000; AID 624465, 2012; in the data active = activation above about 40%; inconclusive = about 15% to 40%; inactive = below about 15%; further: compound concentration not given in the record; the text of the record calls up to 30% inactive
Target sequence (P14416 whole entry, looked up): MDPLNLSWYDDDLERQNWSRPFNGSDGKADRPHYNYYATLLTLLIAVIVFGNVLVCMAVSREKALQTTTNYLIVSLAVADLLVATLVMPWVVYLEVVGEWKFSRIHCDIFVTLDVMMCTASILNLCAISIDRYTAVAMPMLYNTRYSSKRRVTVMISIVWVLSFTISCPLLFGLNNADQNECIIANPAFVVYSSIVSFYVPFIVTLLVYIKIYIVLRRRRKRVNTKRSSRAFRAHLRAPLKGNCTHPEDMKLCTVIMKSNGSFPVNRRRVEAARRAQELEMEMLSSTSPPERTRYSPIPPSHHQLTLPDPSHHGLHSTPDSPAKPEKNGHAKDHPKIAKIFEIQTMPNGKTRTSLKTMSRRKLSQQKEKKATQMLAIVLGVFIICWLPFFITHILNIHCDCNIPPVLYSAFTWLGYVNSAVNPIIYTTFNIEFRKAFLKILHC
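DiscoveRx PathHunter D2 beta-arrestin cells (2,100/well) attached overnight, then compound-stimulated 90 min at 37 C in HBSS/10 mM HEPES/0.1% Tween-20 buffer; beta-galactosidase complementation read by luminescence after 1 h at ambient temperature. Dopamine 57 uM final (EC100) as control.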
Sfp inh – qHTS Assay for Inhibitors of Bacillus subtilis Sfp phosphopantetheinyl transferase (PPTase). Potency, µM, without a hit: max response, negative = inhibition, hits mostly inhibitors. AID 1490, 2009. Biochemical Sfp PPTase activity, qHTS. hit rate 3.5% among 310,000; active means well fitted inhibition curve with a large enough effect; inconclusive means small, poorly fitted or top-dose-only effect, or another doubt; inactive means no such curve, though single readings can be large or run the other way;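 further: the enzyme is Sfp with the accession as filed and its product quenches rhodamine fluorescence; potency means the concentration at half of the fitted maximal effect; 0% = enzyme reaction without inhibitor and -100% = no enzyme wells; top concentration of the series not given in the record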
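Sfp 15 nM + cpd, 15 min RT; start w/ rhodamine-CoA 5 uM, BHQ-2-YbbR 12.5 uM (final); 50 mM Hepes pH 7.6, 10 mM MgCl2, 0.01% NP-40, 0.01% BSA; read 525/598 nm at 0 and 30 min.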
Numbers without * were called inactive; ? = inconclusive; nt = not tested or not shown; [ ] = remark or other dose.

SMILES	Menin MLL FP FL	PINK1 expr mod	gsp ag	ClpP mod	gsp antagonist	D2 agonist	Sfp inh
CNC(=O)CCn1nc(-c2ccccc2)c2ccccc2c1=O	-0.9	-0.5%	20.4%	-1.9%	3.0%	-0.5	8.6%
O=C(Nc1ccc(O)c(-c2nc3ccccc3o2)c1)C1(c2ccc(Br)cc2)CCCC1	-3.2	5.9%	-58.4%[inhibitor]	-2.0%	3.5%	-2.4	?
CCCCSC1=C(C#N)C(c2ccccc2C)CC(=O)N1 (stereo unspecified)	5.3	2.9%	-4.8%	-0.4%	15.7%	-7.2	5.5%
CCOc1ccccc1NC(=O)C1CCN(C(=O)C2CC(=O)N(c3ccc(C)cc3)C2)CC1 (stereo unspecified)	-4.1	1.5%	-4.5%	nt	-2.6%	-0.7	9.4%
CCOC(=O)C1CCN(C(=O)c2cc(S(=O)(=O)N3CCOCC3)ccc2C)CC1	nt	-0.5%	-24.4%	-0.9%	3.1%	0.6	nt
CCCCNC(=O)c1ccc2nc(CC)c(N(CCC(C)C)CCN(C)C)n2c1	nt	2.4%	nt	-7.3%	nt	-5.7	nt
CC(C)c1ccc(NC(=O)C2C3C=CC4(O3)C2C(=O)N(CCCN2CCCCC2)C4C(=O)NC2CCCCC2)cc1 (stereo unspecified)	-3.4	1.1%	13.7%[15.4 µM]	nt	7.2%	0.6	8.0%
CCCN(CCC)CCCNC(=O)CNC(=O)c1nn(-c2ccc(OC)cc2)c(=O)c2ccccc12	0.0	1.0%	0.5%[15.4 µM]	-2.5%	-0.7%	-1.4	2.1%
O=c1c2sccc2n(Cc2cccc(F)c2)c(=O)n1-c1ccc(F)cc1	1.3	1.4%	-48.8%[inhibitor]	-3.1%	-4.0%	-1.6	2.7%
O=C(NC(=S)Nc1ccc(Br)cn1)c1cncc(Br)c1	7.0	0.5%[38.3 µM]	-4.3%	7.3%	-2.3%	4.6	-0.5%
COc1ccc2c(O)c(-c3c(C)cc(C)cc3C)c(=O)[nH]c2c1	nt	0.6%	-5.6%[15.4 µM]	nt	-10.8%	-1.7	nt
CC(C)(CCC(=S)N1CCOCC1)c1ccccc1	nt	-1.4%	?	nt	17.5%	2.6	nt
CC/S(CC1CC1(Cl)Cl)=N\S(=O)(=O)c1ccc(C)cc1 (stereo unspecified)	1.0	8.0%[38.3 µM]	-11.1%	0.3%	-4.1%	-1.2	16.8%
Nc1ccc(-c2nc3ncccc3o2)c(O)c1	5.0	-0.7%	-35.9%	2.7%	7.0%	-4.4	-14.7%
O=c1c2ccccc2nc2n1CCC2	8.4	-3.8%	2.5%	-2.0%	11.2%	-6.1	?
CC(=O)c1cccc(-c2ccnc3c2CC(C(=O)NCc2cccs2)O3)c1 (stereo unspecified)	nt	13.1%	nt	0.9%	nt	3.1	nt
Cc1c(Cl)c(-c2n[nH]c(=S)n2-c2ccccc2)nn1C	-1.0	2.9%	?	-0.8%	26.5%	11.5	?
O=C(c1ccco1)N(Cc1nc2ccccc2c(=O)[nH]1)C1CCCC1	8.7	0.0%	1.9%	-3.2%	-0.5%	-1.3	0.8%
C=CCn1c(C)cc(C(=O)CN2C(=O)c3ccccc3S2(=O)=O)c1C	nt	-0.9%	?	-3.3%	9.2%	4.8	nt
O=C(CCS(=O)(=O)c1ccc(Cl)cc1)NCCc1c[nH]c2ccccc12	4.4	-1.7%	1.2%	nt	-4.3%	-3.8	4.8%

Single records (already shown).
O=c1c2sccc2n(Cc2cccc(F)c2)c(=O)n1-c1ccc(F)cc1 as listed: Menin MLL FP FL: 1.3; PINK1 expr mod: 1.4%; gsp ag: -48.8%[inhibitor]; ClpP mod: -3.1%; gsp antagonist: -4.0%; D2 agonist: -1.6; Sfp inh: 2.7%
O=C(Nc1ccc(O)c(-c2nc3ccccc3o2)c1)C1(c2ccc(Br)cc2)CCCC1 as listed: Menin MLL FP FL: -3.2; PINK1 expr mod: 5.9%; gsp ag: -58.4%[inhibitor]; ClpP mod: -2.0%; gsp antagonist: 3.5%; D2 agonist: -2.4; Sfp inh: ?

Next entries
SMILES	Menin MLL FP FL	PINK1 expr mod	gsp ag	ClpP mod	gsp antagonist	D2 agonist	Sfp inh
O=C(NNc1cccc(Cl)n1)C(F)(F)F	5.7	-1.1%	?	nt	3.7%	-5.2	?
Cc1nc2c(C(=O)NCc3ccco3)cnn2c(C)c1Cc1ccc(F)cc1Cl	0.6	10.0%[38.3 µM]	-2.8%	31.6µM*	8.4%	-4.0	-26.5%
Cc1ccc(-c2nnc(-c3cccc(Br)c3)o2)cc1	1.2	0.4%	-10.8%	?	-4.7%	-4.0	17.8%
COc1ccc(-c2c3c(cc(C)[n+]2[O-])oc2ccc(OC)cc23)cc1	-1.2	2.8%	-40.7%[inhibitor]	?	-0.4%	-2.8	3.6%
Cc1nc(-c2cccc(S(=O)(=O)N3CCOCC3)c2)cs1	5.7	1.9%[38.3 µM]	-56.4%[inhibitor]	-1.1%	-11.4%	-2.3	39.8µM*
Cc1ccccc1CN(c1ccc(C(N)=O)cc1)S(C)(=O)=O	0.8	0.3%	-29.7%	1.3%	-1.2%	1.1	17.3%
CC(=O)Nc1cccc(-c2ccnc3c2CC(C(=O)Nc2ccc4c(c2)OCO4)O3)c1 (stereo unspecified)	nt	4.4%	nt	-5.3%	nt	7.0	nt
COC(=O)NCC(c1cccnc1)N1CCN(c2ccccc2OC)CC1 (stereo unspecified)	2.0	0.4%	-4.0%	0.2%	-4.1%	0.9	2.4%
O=C(N/N=C/c1ccc2c(c1)OCO2)c1ccc(NC(=O)c2ccc(F)cc2)cc1	-2.4	0.0%	-25.1%	nt	-9.2%	-4.1	0.6%
COc1ccc(Cl)cc1S(=O)(=O)n1nnc2ccccc21	-0.9	3.3%	-39.8%[inhibitor]	-1.5%	4.5%	2.7	13.2%
COCCNC(=O)CCCn1c(=O)c2ccccc2n(CC(=O)NCCC2=CCCCC2)c1=O	-1.6	-1.5%	-13.1%	-16.7%	6.1%	-0.7	20.4%
O=C(CSC1=Nc2ccccc2C2=NC(Cc3c[nH]c4ccccc34)C(=O)N12)NC1CCCCC1 (stereo unspecified)	15.3	5.5%[38.3 µM]	1.5%	-0.1%	3.1%	-0.5	-11.7%
Cc1nc(C(=O)NCCC(C)C)sc1C1(C)CC(c2ccccc2)=NO1 (stereo unspecified)	7.4	2.8%	nt	1.5%	-0.3%	3.1	-7.2%
COC(=O)C(Cc1ccccc1)NC(=S)NC(=O)c1ccccc1 (stereo unspecified)	-0.6	2.0%	8.4%[15.4 µM]	0.0%	-23.1%	-4.9	-12.0%
CN(C)/C(=N\OC(=O)c1ccccc1)c1nonc1N	4.0	-0.6%	13.7%[15.4 µM]	-1.0%	13.4%	8.2	5.4%
O=C(CN1CCN(Cc2ccc(Cl)cc2)C1=O)NCCCN1CCOCC1	1.4	0.5%	14.8%	2.4%	3.3%	4.0	8.9%
CN(C)n1cnc2ccsc2c1=O	42.9[activator]	2.5%	-1.5%[15.4 µM]	nt	12.2%	3.9	10.7%
O=C(Cc1ccc(Cl)cc1)Nc1ccc(S(=O)(=O)Nc2ncccn2)cc1	3.1	0.3%	-30.0%	-1.1%	-7.1%	-3.0	-7.1%
CCOc1ccc(S(=O)(=O)Nc2ccc(C(=O)NNC(=O)c3ccncc3)cc2)cc1	nt	0.1%	14.5%[15.4 µM]	-3.0%	-4.8%	0.5	nt
Cc1nc(SCc2ccccc2C)n[nH]1	1.9	-0.2%	-33.4%[inhibitor]	0.1%	12.4%	0.0	25.7%
COc1ccc(-n2ncc3c(N4CCCCC4)ncnc32)cc1	6.1	2.1%	3.6%	-14.5%	-20.1%	11.9	16.3%
O=C(c1ccco1)N1CCN(C(=O)c2ccc(CS(=O)c3ccc(F)cc3)o2)CC1 (stereo unspecified)	-9.5	6.6%	-55.8%[inhibitor]	-1.9%	0.1%	6.5	16.5%
COc1ccc(OC)c(/C=C/C(=O)N(C)CC(=O)Nc2ccc(N3CCOCC3)cc2)c1	nt	-1.1%	-7.5%	28.2µM*	-6.8%	1.3	nt
C/C(=N\OC(=O)c1cccc(C)c1)c1sc(-c2ccccc2)nc1C	0.9	-1.5%	-1.5%	-4.0%	-0.5%	1.2	0.4%
N#CCCN(Cc1ccccc1)C(=O)Nc1ccc(F)cc1	-1.8	-0.9%	-8.5%[15.4 µM]	nt	9.0%	-3.1	22.8%
CC(C)C(=O)Nc1nnc(SCC(=O)Nc2ccc3c(c2)OCO3)s1	6.5	-2.4%	?	0.9%	-2.1%	-1.9	9.0%
Cc1noc(C)c1C(=O)OCC(=O)NCCC1=CCCCC1	0.9	-3.6%	?	-2.5%	6.2%	-2.0	21.6%
Cc1nc(SCC(=O)N2CCN(c3ccccc3)CC2)n[nH]1	-1.7	-0.5%	4.7%[15.4 µM]	nt	5.7%	-2.5	-10.8%
COCCNC(=S)N(CCc1c(C)[nH]c2ccc(F)cc12)Cc1cccnc1	-4.3	-0.7%	9.3%	-2.6%	-13.8%	-3.4	0.8%

An excerpt from above, showing only Menin MLL FP FL:
structure	Menin MLL FP FL
N#CCCN(Cc1ccccc1)C(=O)Nc1ccc(F)cc1	-1.8
Cc1nc(SCC(=O)N2CCN(c3ccccc3)CC2)n[nH]1	-1.7
